CSC inhib – blocks cancer stem cells. inhibition, % at 7.5 µM. cancer stem cell-like cells viability, luminescence. 300,000 compounds, 1.1% hits;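 active = mean at 75% or more and at least half the replicates too; tested in HMLE shEcad cells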;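 note: 0% = median of negative and 100% = median of positive control wells; the first replicate is given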
UUG fidelity – alters start codon recognition fidelity in yeast; S. cerevisiae UUG-firefly luciferase reporter, luminescence/redox ratio; activity score, % at 18.7 µM; AID 602363; 350,000 compounds, 0.13% hits;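 active = replicate mean at a twofold rise or more, about +100% in these data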;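 note: firefly luciferase made from a UUG start codon reports start codon fidelity; reporter light over untreated wells divided by growth signal over untreated wells; some hits fall short of that in this replicate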
Env fusion inh – blocks HIV Env-driven cell-cell fusion; 360,000 compounds, 1.1% hits; inhibition, % at 12.3 µM; HeLa-JRFL Env/CEM21 cell fusion, luciferase;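 active = mean replicate inhibition score of at least 50 and every replicate individually at or above 50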;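 note: 0% = plate neutral controls and 100% = maraviroc near 300 nM; one replicate is shown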
* = called active by the depositor; . = no result given; [ ] = another dose, or the depositor's remark. An excerpt; rates above refer to the full screens.

SMILES | CSC inhib | UUG fidelity | Env fusion inh
C/C=C/c1ccc([C@H]2[C@@H](CO)N3CCCCN(C(=O)Nc4ccc(OC)cc4)C[C@@H]23)cc1 | . | 14 | .
CCNC(=O)C[C@H]1CC[C@@H]2[C@H](COC[C@H](O)CN2S(=O)(=O)c2ccc(Oc3ccccc3)cc2)O1 | . | 19 | .
O=C(Nc1ccccc1)N1C[C@H]2[C@@H](c3ccccc31)[C@H](CO)N2C(=O)Cc1ccccn1 | . | 42 | .
C[C@H]1CN([C@@H](C)CO)C(=O)c2cc(NC(=O)Cc3cn(C)c4ccccc34)ccc2O[C@H]1CN(C)Cc1ccc(C(=O)Nc2ccccc2N)cc1 | . | 6 | .
CO[C@H]1CN(C)C(=O)c2cc(NC(=O)C3CCCCC3)ccc2OC[C@@H](C)N(Cc2cccnc2)C[C@@H]1C | . | 7 | .
C[C@H](CO)N1C[C@H](C)[C@H](CN(C)S(=O)(=O)c2ccc(F)cc2)Oc2c(NC(=O)c3ccc(-c4nccs4)cc3)cccc2C1=O | . | 1 | .
C[C@H](O)C#Cc1ccc([C@@H]2[C@H](CO)N3CCCCN(CC4CC4)C[C@@H]23)cc1 | . | -4 | .
N#Cc1ccc(-c2ccc3c(c2)[C@@H]2[C@@H](CCN2C(=O)c2ccccc2F)[C@@H](CO)N3)cc1 | . | -9 | .
CCCC(=O)Nc1ccc2c(c1)C(=O)N(C)[C@H]1CC[C@@H](CC(=O)Nc3cn(C)nc3C)O[C@@H]1CO2 | . | -12 | .
O=C(C[C@H]1CC[C@H]2[C@@H](COC[C@H](O)CN2S(=O)(=O)c2ccccc2)O1)NCc1ccc2c(c1)OCO2 | . | 8 | .
CCCNC(=O)Nc1ccc2c(c1)C(=O)N(C)[C@H]1CC[C@H](CC(=O)Nc3ccc4c(c3)CCCC4)O[C@@H]1CO2 | . | 6 | .
CO[C@H]1CN(C)C(=O)c2ccc(NC(=O)c3ccccc3F)cc2OC[C@@H](C)N(C(=O)c2ccccc2F)C[C@H]1C | . | 6 | .
C[C@@H]1CN([C@@H](C)CO)C(=O)c2cc(NC(=O)Nc3ccc(F)cc3)ccc2O[C@H]1CN(C)Cc1ccc(C(F)(F)F)cc1 | . | 6 | .
CO[C@H]1CN(C)C(=O)c2cc(NC(=O)NC3CCCCC3)ccc2OC[C@@H](C)NC[C@H]1C | . | 3 | .
Cc1noc(C)c1S(=O)(=O)Nc1cccc2c1O[C@H](CN(C)S(=O)(=O)c1ccc(Cl)cc1)[C@H](C)CN([C@H](C)CO)C2=O | . | -7 | .
C[C@@H]1CN([C@H](C)CO)C(=O)c2cccc(NS(=O)(=O)c3ccc(Cl)cc3)c2O[C@H]1CN(C)Cc1ccncc1 | . | -15 | .
CN1CCCCN2[C@H](C1)[C@@H](c1ccc(C#Cc3ccccc3F)cc1)[C@@H]2CO | . | 23 | .
C/C=C/c1ccc([C@@H]2[C@@H](CO)N(C(C)=O)[C@@H]2CNC(=O)CC2CC2)cc1 | . | -4 | .
Cc1cccc(-c2ccc([C@@H]3[C@H](CO)N4CCCCN(S(=O)(=O)c5cccc(C)c5)C[C@@H]34)cc2)c1 | . | -23 | .
O=C(NC[C@@H]1[C@H](c2ccccc2)[C@H](CO)N1CC1CCCC1)c1ccncc1 | . | -6 | .
C[C@H]1CN([C@@H](C)CO)C(=O)Cc2cc(NC(=O)Nc3ccc(C(F)(F)F)cc3)ccc2O[C@@H]1CN(C)C | . | 0 | .
CN(C)CC(=O)N1CCCCN2[C@H](CO)[C@H](c3ccc(-c4cccnc4)cc3)[C@@H]2C1 | . | -18 | .
O=C(NC1CCC1)[C@@H]1[C@@H](CO)[C@@H]2Cn3c(ccc(C4=CCCC4)c3=O)[C@H]1N2CC1CC1 | . | -19 | .
CCCNC(=O)Nc1ccc2c(c1)C(=O)N(C)C[C@@H](OC)[C@@H](C)CN(Cc1cncnc1)[C@H](C)CO2 | . | 0 | .
O=S(=O)(c1ccc(F)cc1)N1CC[C@@H]2[C@H]1c1cc(-c3ccc(F)cc3)ccc1N[C@@H]2CO | . | -14 | .
SMILES | CSC inhib | UUG fidelity | Env fusion inh
COc1cccc(C(=O)Nc2ccc3c(c2)C(=O)N(C)[C@H]2CC[C@H](CC(=O)N[C@@H](C)c4ccccc4)O[C@H]2CO3)c1 | . | 1 | .
C[C@@H]1CN([C@H](C)CO)C(=O)Cc2cc(NS(=O)(=O)c3ccc(Cl)cc3)ccc2O[C@@H]1CN(C)C | . | 0 | .
Cn1nnnc1Sc1ncnc2scc(-c3cccs3)c12 | 57 | -14 | .
CCOC(=O)NC(=O)CSc1ccc(S(=O)(=O)N2CCCCC2)cn1 | -11 | -5 | .
O=C(OCc1nnc(-c2ccccc2)o1)C1CC(=O)N(CCc2ccccc2)C1 (stereo not given) | -15 | 4 | .
CCC(=O)c1ccc(OCC(=O)NC2CCCC2)cc1 | 8 | -2 | .
CCCC(=O)Nc1ccc2c(c1)C(=O)N(C)C[C@H](OC)[C@H](C)CN(C(=O)c1ccccn1)[C@@H](C)CO2 | . | . | -40[16.7 µM]
CC(C)NC(=O)Nc1ccc2c(c1)C(=O)N([C@@H](C)CO)C[C@@H](C)[C@@H](CN(C)C(=O)CCCN(C)C)OCCCC[C@@H](C)O2 | . | . | -49[16.7 µM]
COC(=O)C1=C(C)N(Cc2ccccc2C(F)(F)F)C(=NCc2ccccc2)NC1c1cccc(C(F)(F)F)c1 (stereo not given) | . | . | 17
O=C(C[C@@H]1C=C[C@@H](NC(=O)c2cccc(F)c2)[C@@H](CO)O1)Nc1nccs1 | . | . | 18[16.7 µM]
Cc1cc(C(=O)Nc2ccc3c(c2)C(=O)N(C)[C@H]2CC[C@H](CC(=O)NC4CCCC4)O[C@H]2CO3)no1 | . | . | -5[16.7 µM]
CC(C)NC(=O)Nc1ccc2c(c1)C(=O)N([C@H](C)CO)C[C@@H](C)[C@@H](CN(C)C(=O)Nc1ccc(F)cc1)O2 | . | . | 4[16.7 µM]
C[C@@H]1CCCCO[C@@H](CN(C)Cc2ccncc2)[C@@H](C)CN([C@H](C)CO)C(=O)c2cc(N(C)C)ccc2O1 | . | . | 4[16.7 µM]
CC(C)NC(=O)N1Cc2cc(C(=O)NC3Cc4ccccc4C3)nc(-c3cccc(-c4cccnc4)c3)c2[C@@H]1CCO | . | . | 53[16.7 µM]
C[C@H]1CN([C@@H](C)CO)C(=O)c2c(c3ccccc3n2C)-c2ccccc2CO[C@H]1CN(C)C(=O)Nc1ccc2c(c1)OCO2 | . | . | 38[16.7 µM]
CCCNC(=O)N[C@@H]1CC[C@@H](CCn2cc(-c3cccc(F)c3)nn2)O[C@@H]1CO | . | . | 25[16.7 µM]
C[C@H](NC(=O)C[C@@H]1C=C[C@H](NC(=O)Nc2ccc3c(c2)OCO3)[C@H](CO)O1)c1ccccc1 | . | . | 18[16.7 µM]
COCc1cc(N2CCN(C(=O)OC(C)(C)C)C[C@@H]2C)ccc1N1CC[C@@H](O)C1 | . | . | 24
O=C(Nc1cccc(Cl)c1)N[C@H]1CC[C@@H](CCn2cc(Cc3ccccc3)nn2)O[C@@H]1CO | . | . | -10[16.7 µM]
O=C(Nc1ccc2c(c1)[C@H]1C[C@@H](CC(=O)N3CCc4ccccc4C3)O[C@H](CO)[C@H]1O2)c1ccc2c(c1)OCO2 | . | . | 10[16.7 µM]
CC=Cc1ccc2n(c1=O)C[C@H]1[C@H](CO)[C@@H](C(=O)N[C@H](C)c3ccccc3)[C@@H]2N1CC (mixture of isomers) | . | . | -4[16.7 µM]
O=C(NCC1CC1)[C@H]1[C@H](CO)[C@H]2Cn3c(ccc(-c4cncnc4)c3=O)[C@H]2N1C(=O)NC1CCCC1 | . | . | 12[16.7 µM]
COc1ccc(CN(C)C[C@H]2OCCCC[C@@H](C)Oc3ccc(NC(=O)NC(C)C)cc3C(=O)N([C@@H](C)CO)C[C@H]2C)cc1 | . | . | -6[16.7 µM]
CC(=O)N(C)C[C@H]1Oc2cc(C3=CCCCC3)ccc2S(=O)(=O)N([C@@H](C)CO)C[C@H]1C | . | . | 8[16.7 µM]
C[C@H](NC(=O)C[C@H]1C[C@H]2c3cc(NC(=O)Nc4ccc(C(F)(F)F)cc4)ccc3O[C@H]2[C@@H](CO)O1)c1ccccc1 | . | . | 0[16.7 µM]

One compound at a time (already shown). Order of screens: CSC inhib	UUG fidelity	Env fusion inh
C[C@H]1CN([C@@H](C)CO)C(=O)Cc2cc(NC(=O)Nc3ccc(C(F)(F)F)cc3)ccc2O[C@@H]1CN(C)C in the list: .	0	.
Cc1noc(C)c1S(=O)(=O)Nc1cccc2c1O[C@H](CN(C)S(=O)(=O)c1ccc(Cl)cc1)[C@H](C)CN([C@H](C)CO)C2=O in the list: .	-7	.

(listing goes on)
SMILES | CSC inhib | UUG fidelity | Env fusion inh
N#C[C@@H]1[C@H](c2ccc(C3=CCCC3)cc2)[C@@H](CO)N1c1nc(-c2ccccc2)cs1 | . | . | 18[16.7 µM]
c1ccc(-c2ccc3c(n2)CCCN3Cc2ccccn2)cc1 | . | . | 61*
O=C(C[C@H]1CC[C@@H](NC(=O)c2cccc(F)c2)[C@@H](CO)O1)NCCN1CCCC1 | . | . | -18[16.7 µM]
C[C@H](NC(=O)C[C@@H]1C[C@H]2c3cc(N(C)C)ccc3O[C@H]2[C@@H](CO)O1)c1ccccc1 | . | . | 1[16.7 µM]
CC(C)NC(=O)Nc1ccc2c(c1)C(=O)N([C@@H](C)CO)C[C@H](C)[C@@H](CN(C)Cc1ccncc1)OCCCC[C@H](C)O2 | . | . | -44[16.7 µM]
O=C(NC[C@H]1CC[C@@H]2[C@@H](CN2C(=O)CN2CCOCC2)O1)NC1CCCCC1 | . | . | -31[16.7 µM]
COC(=O)[C@]12C[C@H](CC(=O)NCC3CCCCC3)C(=O)N(CCc3ccc(OC)c(OC)c3)C1=C[C@H](C(C)(C)C)O[C@@H]2C | . | . | -11
Cc1noc(C)c1S(=O)(=O)Nc1ccc2c(c1)CC(=O)N([C@H](C)CO)C[C@H](C)[C@@H](CN(C)C(=O)Nc1ccccc1)O2 | . | . | 16[16.7 µM]
NC(=O)c1ncn([C@@H]2O[C@H](C(=O)O)[C@@H](O)[C@H]2O)n1 | . | . | -1
CO[C@@H]1CN(C)C(=O)c2ccc(NC(=O)C3CCOCC3)cc2OC[C@H](C)NC[C@@H]1C | . | . | -4[16.7 µM]
C[C@H]1CN([C@@H](C)CO)C(=O)c2cc(C3=CCCCC3)cnc2O[C@@H]1CN(C)S(C)(=O)=O | . | . | -2[16.7 µM]
CN(C)CC(=O)Nc1ccc2c(c1)[C@H]1C[C@@H](CC(=O)NCc3cc(F)ccc3F)O[C@@H](CO)[C@H]1O2 | . | . | -4[16.7 µM]
CO[C@@H]1CN(C)C(=O)c2ccc(NC(=O)c3ccccc3F)cc2OC[C@H](C)N(C)C[C@@H]1C | . | . | -17[16.7 µM]
COc1ccccc1CNC(=O)C[C@H]1C[C@@H]2c3cc(NC(=O)C4CCOCC4)ccc3O[C@@H]2[C@@H](CO)O1 | . | . | -7[16.7 µM]
CNC[C@@H]1OCCCC[C@@H](C)Oc2ccc(NS(=O)(=O)c3ccc(F)cc3)cc2C(=O)N([C@@H](C)CO)C[C@@H]1C | . | . | 8[16.7 µM]
CO[C@H]1CN(C)C(=O)c2cc(NC(=O)C3CCCC3)ccc2OC[C@@H](C)N(C(C)=O)C[C@@H]1C | . | . | -13[16.7 µM]
O=C(C[C@@H]1C[C@H]2c3cc(NC(=O)C4CCOCC4)ccc3O[C@H]2[C@H](CO)O1)NCc1cccnc1 | . | . | 11[16.7 µM]

Twelve successive compounds already listed, for reference:
SMILES | CSC inhib | UUG fidelity | Env fusion inh
c1ccc(-c2ccc3c(n2)CCCN3Cc2ccccn2)cc1 | . | . | 61*
O=C(C[C@H]1CC[C@@H](NC(=O)c2cccc(F)c2)[C@@H](CO)O1)NCCN1CCCC1 | . | . | -18[16.7 µM]
C[C@H](NC(=O)C[C@@H]1C[C@H]2c3cc(N(C)C)ccc3O[C@H]2[C@@H](CO)O1)c1ccccc1 | . | . | 1[16.7 µM]
CC(C)NC(=O)Nc1ccc2c(c1)C(=O)N([C@@H](C)CO)C[C@H](C)[C@@H](CN(C)Cc1ccncc1)OCCCC[C@H](C)O2 | . | . | -44[16.7 µM]
O=C(NC[C@H]1CC[C@@H]2[C@@H](CN2C(=O)CN2CCOCC2)O1)NC1CCCCC1 | . | . | -31[16.7 µM]
COC(=O)[C@]12C[C@H](CC(=O)NCC3CCCCC3)C(=O)N(CCc3ccc(OC)c(OC)c3)C1=C[C@H](C(C)(C)C)O[C@@H]2C | . | . | -11
Cc1noc(C)c1S(=O)(=O)Nc1ccc2c(c1)CC(=O)N([C@H](C)CO)C[C@H](C)[C@@H](CN(C)C(=O)Nc1ccccc1)O2 | . | . | 16[16.7 µM]
NC(=O)c1ncn([C@@H]2O[C@H](C(=O)O)[C@@H](O)[C@H]2O)n1 | . | . | -1
CO[C@@H]1CN(C)C(=O)c2ccc(NC(=O)C3CCOCC3)cc2OC[C@H](C)NC[C@@H]1C | . | . | -4[16.7 µM]
C[C@H]1CN([C@@H](C)CO)C(=O)c2cc(C3=CCCCC3)cnc2O[C@@H]1CN(C)S(C)(=O)=O | . | . | -2[16.7 µM]
CN(C)CC(=O)Nc1ccc2c(c1)[C@H]1C[C@@H](CC(=O)NCc3cc(F)ccc3F)O[C@@H](CO)[C@H]1O2 | . | . | -4[16.7 µM]
CO[C@@H]1CN(C)C(=O)c2ccc(NC(=O)c3ccccc3F)cc2OC[C@H](C)N(C)C[C@@H]1C | . | . | -17[16.7 µM]

Source: PubChem
